Assay outcomes deposited in PubChem by Fisher Drug Discovery Resource Center.
NPYLR7 agonist = mosquito NPYLR7 agonism. HEK293T NPYLR7/Galpha15, GCaMP6s calcium fluorescence. activation, % at 10 µM. 0.15% of 270,000 active. AID 1259423; in the data active = activation above about 40%;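 also: 0% = vehicle and 100% = reference agonist at the receptor; some compounds past the cut are filed as inactive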
NPYLR7 agonist max-min = further read-out of NPYLR7 agonist, marked with its call; activation, %; measured here: Max-Min RFU normalised activation; some inactives read as strong as hits;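 span of the calcium signal over five minutes; 0% = vehicle and 100% = native peptide agonist; compound fluorescence can raise it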
* hit, by the source's call.

1: Cc1ccccc1NC(=O)C1CCCN1c1ncnc2ccccc12 (configuration not stated)
2: CCOc1ccc(-n2nnnc2CN2CCN(C(=O)C3CC3)CC2)cc1
3: CC(C(N)=O)n1cc(Br)cn1 (configuration not stated)
4: CCc1nc2ccc(C(=O)N3CCN(C)CC3)cn2c1N(CC)C(=O)CCC1CCCC1
5: CCCN1CCC(C(=O)NC(c2cccnc2)c2ccc3c(c2)OCO3)CC1 (configuration not stated)
6: Cc1ccc(C(=O)NCC(=O)Nc2ccccn2)cc1C

assay / entry | 1 | 2 | 3 | 4 | 5 | 6
NPYLR7 agonist | 1 | 1 | 2 | 17 | 45 | 7
NPYLR7 agonist max-min | -2 | 1 | 0 | 10 | 39 | 6

7: CCOC(=O)c1cc(-c2cccc(NC(=O)C3CCN(C(C)=O)CC3)c2)n(-c2ccccc2F)n1
8: Cc1ccc[n+](C(C)C(=O)c2ccc(Cl)cc2)c1 (configuration not stated)
9: O=C(Cn1cc([N+](=O)[O-])cn1)NCC1CCCO1 (configuration not stated)
10: COCCN(Cc1ccc(OS(=O)(=O)c2ccc(F)cc2)cc1)C(=O)Nc1ccc(OC)cc1OC
11: CCc1c(C(=O)NCCN(C)C)cnn1-c1ccccc1
12: Cc1nnc(SCC(=O)Nc2c(C)cnn2Cc2ccccc2Cl)s1

assay / entry | 7 | 8 | 9 | 10 | 11 | 12
NPYLR7 agonist | 25 | 12 | 2 | 6 | 16 | -5
NPYLR7 agonist max-min | 13 | 10 | 1 | -2 | 27 | -10

13: Cc1cccc(S(=O)(=O)NC(=O)C2(C)CCN2C(=O)C2(c3ccc(Cl)cc3)CCC2)c1 (configuration not stated)
14: CCSc1nnc2c(n1)OC(c1ccccn1)Nc1ccc(Br)cc1-2 (configuration not stated)
15: COc1cc(-c2ccnc(N3CCN(C(=O)c4ccccc4OC(F)(F)F)CC3)n2)cc(OC)c1OC
16: COC(=O)c1cccc(NC(=O)NC2CCCN2S(=O)(=O)c2ccc(Cl)cc2)c1 (configuration not stated)
17: O=C(NCCc1c[nH]c2ccccc12)c1ccc(CSc2ccc3ccccc3n2)cc1
18: CN1CCC(OCCCn2cnc(-c3ccccc3)c2-c2ccncc2)CC1

assay / entry | 13 | 14 | 15 | 16 | 17 | 18
NPYLR7 agonist | 0 | 16 | 17 | 0 | -2 | 14
NPYLR7 agonist max-min | -2 | 12 | 8 | 6 | -5 | 13

19: O=C(NC1CCCCC1)C12CC3CC(CC(C3)C1)C2
20: COc1ccc(CNc2ncnc3[nH]ncc23)cc1
21: Cc1cccc(Nc2ncnc(N)c2[N+](=O)[O-])c1
22: CCC(C)C(NC(=O)Nc1ccc([N+](=O)[O-])cc1)C(=O)Nc1nnc(-c2cccc(OC)c2)s1 (configuration not stated)
23: Cc1ccc(NC(=O)N(CC(=O)N(Cc2ccccc2)Cc2ccc(C)s2)CC2CCCO2)c(C)c1 (configuration not stated)
24: O=S(=O)(c1ccc(Br)cc1)N1CCc2nc(-c3ccccc3)nc(N3CCCC3)c2C1

assay / entry | 19 | 20 | 21 | 22 | 23 | 24
NPYLR7 agonist | 2 | 10 | 1 | -4 | 18 | -9
NPYLR7 agonist max-min | 3 | 9 | -6 | -1 | 20 | -13

25: C=C(C)COc1ccccc1C(=O)NCc1noc(-c2cccs2)n1
26: c1ccc(COc2ccccc2OCCNCCN2CCOCC2)cc1
27: CCc1nnc(-c2ccc(OC)c(I)c2)o1
28: COc1ccccc1-n1c(-c2ccc(Cl)cc2)cc(C(=O)NCCCN2CCOCC2)c1C
29: CCNC(=O)N(CC(=O)N(CCc1ccc(OC)c(OC)c1)Cc1ccc(C)o1)C1CCCCC1
30: CC1CN(c2cc(Cl)nc(SCC(=O)NCc3ccc4c(c3)OCO4)n2)CCN1C(=O)c1ccc(F)cc1 (configuration not stated)

assay / entry | 25 | 26 | 27 | 28 | 29 | 30
NPYLR7 agonist | 0 | 14 | 2 | -8 | 1 | -7
NPYLR7 agonist max-min | -2 | 6 | 7 | -7 | 0 | 0

31: O=C(CSc1nc2ccccc2[nH]1)Nc1cccc(C(F)(F)F)c1
32: CC(=O)Nc1ccc(S(=O)(=O)Nc2ccc(CC(=O)N3CCOCC3)cc2)c(C)c1
33: Cc1cc(N2CCCN(Cc3c(F)cccc3Cl)CC2)ccn1
34: CN(CC(=O)N1CCN(S(=O)(=O)c2ccc(F)cc2)CC1)Cc1nc2ccccc2c(=O)[nH]1
35: O=C(NCc1ccccn1)C(C1CCCC1)N1CCN(C(=O)c2cccs2)CC1 (configuration not stated)
36: CCn1c(=O)n(CC(=O)N(C)CC(=O)Nc2c(C)cc(C)cc2C)c2ccccc21

assay / entry | 31 | 32 | 33 | 34 | 35 | 36
NPYLR7 agonist | -1 | -5 | 1 | 6 | -7 | -2
NPYLR7 agonist max-min | -2 | -8 | 3 | 2 | 1 | -7

37: COc1ccc(OC)c(-c2c(Nc3ccc(C)cc3C)oc3c2c(=O)n(C)c(=O)n3C)c1
38: CCCCc1nc(N2CCCN(C(=O)N(C)C)CC2)c2c(C)nn(-c3ccc(F)cc3)c2n1
39: CC(NC(=O)C1COC2(CCCCC2)N1C(=O)Cc1cccs1)c1ccccc1 (configuration not stated)
40: CC1CN(CC2CCCN2C(=O)c2csc3cncn23)CC(C)O1 (configuration not stated)
41: CCC(C)n1cnc2c(nnn2CC)c1=O (configuration not stated)
42: Cc1[nH]ncc1C(=O)O

assay / entry | 37 | 38 | 39 | 40 | 41 | 42
NPYLR7 agonist | -1 | 8 | -1 | -1 | -1 | 3
NPYLR7 agonist max-min | -3 | 6 | 6 | -6 | 29 | 2

43: Cc1ccc(/C(=C\N2CCOCC2)S(=O)(=O)c2ccc(C)cc2)cc1
44: O=C(CSc1c[nH]c2ccccc12)N1CCOCC1
45: CCOCC(=O)Nc1scc2c(C(=O)OCC)nn(-c3ccc(C(F)(F)F)cc3)c(=O)c12
46: COc1ccc(CC2CCN(S(=O)(=O)c3cccc(C)c3)CC2)cc1
47: COCCN(Cc1nc(C(=O)NC(c2ccccc2)c2ccccc2)cs1)C(=O)Nc1ccc(C(C)C)cc1
48: O=C(NCCc1ccco1)c1ccc(C2SCCS2)cc1

assay / entry | 43 | 44 | 45 | 46 | 47 | 48
NPYLR7 agonist | -5 | 1 | -3 | 15 | 24 | 3
NPYLR7 agonist max-min | -5 | 0 | -2 | 5 | 25 | -4

49: Cc1ccc(-c2nn(CC(=O)NCC(C)C)cc2Br)cc1
50: CCOC(=O)C(Cc1ccccc1)N(Cc1cc(Br)ccc1OCC)C(=O)CCCCn1ccnc1CO (configuration not stated)
51: O=S1(=O)CCC(c2nc(-c3ccc(N4CCCCC4)cc3)no2)C1 (configuration not stated)
52: CC(C)CC(=O)N(CC(=O)N1CCc2sccc2C1COc1ccc(Cl)cc1)C1CC1 (configuration not stated)
53: CC(C(=O)N(C)c1ccccc1)n1cccn1 (configuration not stated)
54: O=C1C2C(c3ccc(F)cc3)NC(Cc3ccccc3)(C(=O)O)C2C(=O)N1c1ccc(F)cc1 (configuration not stated)

assay / entry | 49 | 50 | 51 | 52 | 53 | 54
NPYLR7 agonist | 9 | -1 | 0 | -1 | 5 | 17
NPYLR7 agonist max-min | 7 | -8 | 91 | 5 | 3 | 8

55: O=C1NC(=S)C(=Cc2ccc(-c3ccc(F)cc3)o2)S1
56: O=C(NC(c1ccc(Cl)cc1)c1cccnc1)C1CCN(CCCc2ccccc2)CC1 (configuration not stated)
57: FC(F)(F)Oc1cccc(-c2cc(N3CCN(c4ccccn4)CC3)n3nccc3n2)c1
58: CCOC(=O)c1nn(-c2ccc(C)cc2)c(=O)cc1OS(=O)(=O)c1ccc(Cl)cc1
59: Cc1nn(C)c(C)c1S(=O)(=O)N1CCN(C(c2ccccc2)c2ccc(F)cc2)CC1 (configuration not stated)
60: Cn1nc([N+](=O)[O-])nc1Oc1cccc2cccnc12

assay / entry | 55 | 56 | 57 | 58 | 59 | 60
NPYLR7 agonist | 3 | 12 | -7 | -1 | 32 | 16
NPYLR7 agonist max-min | 5 | 0 | -12 | -1 | 20 | 6

Laid out differently: four of the compounds above.
No.	SMILES	NPYLR7 agonist	NPYLR7 agonist max-min
58	CCOC(=O)c1nn(-c2ccc(C)cc2)c(=O)cc1OS(=O)(=O)c1ccc(Cl)cc1	-1	-1
56	O=C(NC(c1ccc(Cl)cc1)c1cccnc1)C1CCN(CCCc2ccccc2)CC1 (configuration not stated)	12	0
59	Cc1nn(C)c(C)c1S(=O)(=O)N1CCN(C(c2ccccc2)c2ccc(F)cc2)CC1 (configuration not stated)	32	20
57	FC(F)(F)Oc1cccc(-c2cc(N3CCN(c4ccccn4)CC3)n3nccc3n2)c1	-7	-12

New compounds follow:
61: NS(=O)(=O)c1ccc(NC(=O)CSc2nnc3sc4ccccc4n23)cc1
62: O=C(NC(c1ccccc1)c1cnccn1)C1CCN(CCOc2ccc(Cl)cc2Cl)CC1 (configuration not stated)
63: CCCn1c(=O)n(C)c(=O)c2c(SCC(=O)C(C#N)=C(C)N)nc(CC(C)C)nc21
64: NS(=O)(=O)c1cc(C(=O)NCC(F)(F)F)ccc1Cl
65: O=C(CSc1cc(-c2ccccc2)ncn1)N1CCCC1
66: CC(NC(=O)CCl)c1cccc2ccccc12 (configuration not stated)

assay / entry | 61 | 62 | 63 | 64 | 65 | 66
NPYLR7 agonist | -8 | 2 | 1 | 2 | 4 | 3
NPYLR7 agonist max-min | -11 | 4 | 8 | -1 | 5 | 1

67: Clc1ccc(-c2nc3ncc(Br)cc3[nH]2)cc1
68: CCOC(=O)c1c(CN2CCN(c3ccccc3)CC2)n(-c2ccccc2)c2cc(Br)c(O)cc12
69: CC1CCC2(CC1)NC(=O)N(CC(=O)N1CCC3CCCCC3C1)C2=O (configuration not stated)
70: COc1ccc(Br)cc1C=NN1CCN(C)CC1
71: O=C(c1cn(-c2ccccc2)nn1)N1CCCC(c2nc3ccccc3[nH]2)C1 (configuration not stated)
72: O=C(O)CN1C(=O)/C(=C\c2ccccc2OCc2ccc(Cl)cc2)SC1=S

assay / entry | 67 | 68 | 69 | 70 | 71 | 72
NPYLR7 agonist | 11 | -12 | 0 | 2 | -18 | 13
NPYLR7 agonist max-min | 7 | -18 | 4 | 0 | -21 | 9

73: COCC(=O)N[C@H](C(=O)NCc1ccc(C)s1)C(C)C
74: O=C(O)CCC(=O)N1CCCC1C(=O)O (configuration not stated)
75: COc1ccc(CCc2nc3cccnc3n2C2CCN(C(=O)C3CCCCCN3C)CC2)cc1 (configuration not stated)
76: CCC(C)N(CC(=O)N(Cc1cccn1Cc1ccccc1Cl)C1CCCCC1)C(=O)c1ccc2c(c1)OCO2 (configuration not stated)
77: COCCN(C)C(=O)c1cnn(Cc2ccccc2)c1
78: CC1(C(=O)NCc2cccc3ccccc23)CCN1Cc1c(F)cccc1F (configuration not stated)

assay / entry | 73 | 74 | 75 | 76 | 77 | 78
NPYLR7 agonist | 8 | 1 | -10 | -3 | 24 | 14
NPYLR7 agonist max-min | 8 | -20 | -12 | 4 | 9 | 4

79: CC1(C(=O)NS(=O)(=O)c2ccc(Cl)s2)CCN1C(=O)C1(c2ccc(Cl)cc2)CC1 (configuration not stated)
80: O=C1OC(CNS(=O)(=O)c2cccs2)CN1c1ccccc1 (configuration not stated)
81: CCN(CC1CCOCC1)C(=O)c1ccc(-c2ccn[nH]2)cc1
82: O=C(c1ccc(Cl)cc1)N1CCN(C(C(=O)N2CCSCC2)C2CCCC2)CC1 (configuration not stated)
83: CCNC(=S)NN=C(C)C1CCCCC1
84: CCc1nc2n(n1)C(=O)C(C(c1ccccc1)N1CCN(Cc3ccccc3)CC1)S2 (configuration not stated)
85: CN(Cc1ccc(O)cc1)C(=O)C1CCN(c2ccc(Cl)cn2)CC1
86: CCS(=O)(=O)Oc1ccccc1CN(C(=O)Nc1ccccc1OC)C(C)C
87: Cc1ccccc1Nc1nc(N)nc(CN2CCCCCCC2)n1

assay / entry | 79 | 80 | 81 | 82 | 83 | 84 | 85 | 86 | 87
NPYLR7 agonist | 5 | 5 | 0 | 6 | -8 | -3 | 7 | 9 | -4
NPYLR7 agonist max-min | 2 | 5 | -3 | 17 | -11 | -9 | 2 | 20 | -4

Compound profiles, from the list above.
`CCN(CC1CCOCC1)C(=O)c1ccc(-c2ccn[nH]2)cc1` across the screens: NPYLR7 agonist: 0; NPYLR7 agonist max-min: -3
`CC1(C(=O)NS(=O)(=O)c2ccc(Cl)s2)CCN1C(=O)C1(c2ccc(Cl)cc2)CC1` (configuration not stated) across the screens: NPYLR7 agonist: 5; NPYLR7 agonist max-min: 2

Some of the compounds tested; rates above refer to the full screens.
